From PubChem
HCMV UL50-53 inh = disrupts HCMV UL50-UL53 complex binding; HTRF UL50-UL53 interaction, normalized percent inhibition; inhibition, % (no concentration beside the values); actives 0.15% (n = 190,000);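 active = both replicates at 50% or more, plus weaker picks with an unusually low signal ratio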;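 also: stock transfer was 100 nL into about 20 µL; 0% = negative control wells and 100% = wells with untagged competitor protein; inactives centre near -12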
GIV Gai3 FP = blocks GIV peptide binding to rat Galpha-i3 | Galpha-i3/FITC-GIV peptide fluorescence polarization, 90 min; active compounds read low; scaled: aluminum fluoride 0%, vehicle 100% | percent of control (FP), % (test concentration not listed) | actives 0.42% (n = 210,000) | AID 1224905;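 active = replicate mean at 85% of control or lower, very high polarization wells dropped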;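 also: lower values mean more displacement of the GIV peptide from Galpha-i3; wells of about 15 µL received 100 nL stock; the first replicate is given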
Target sequence (P08753 whole entry, looked up): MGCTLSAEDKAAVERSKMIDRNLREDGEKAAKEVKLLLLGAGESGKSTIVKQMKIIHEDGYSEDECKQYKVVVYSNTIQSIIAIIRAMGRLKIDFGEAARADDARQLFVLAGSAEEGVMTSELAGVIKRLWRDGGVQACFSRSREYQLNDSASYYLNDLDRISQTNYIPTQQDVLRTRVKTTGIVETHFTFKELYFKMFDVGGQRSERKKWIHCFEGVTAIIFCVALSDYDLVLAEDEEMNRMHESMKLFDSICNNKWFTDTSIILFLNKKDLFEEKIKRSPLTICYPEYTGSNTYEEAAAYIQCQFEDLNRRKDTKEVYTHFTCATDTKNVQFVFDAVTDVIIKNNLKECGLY
Sa growth 42C = inhibitors of Staphylococcus aureus growth at 42 °C. S. aureus RN4220 growth, OD600, 20 h; active compounds read low. relative growth, % (concentration not given with the values). actives 0.53% (n = 170,000). AID 720641;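 active = growth at 42 °C up to 50% and 20 or more points under that at 30 °C, or under 10% at both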;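 also: 300 nL library stock went into each well; scaled to the means of positive and negative controls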
Sa growth 42C second temp = also measured in Sa growth 42C; calls as there; relative growth, %; measured here: growth at 30 °C;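 optical density after 20 h as mean of two plates; 100% = untreated growth and lower means inhibition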
* hit, by the source's call; . = no result given; & = joins results of further samples.

SMILES	HCMV UL50-53 inh	GIV Gai3 FP	Sa growth 42C	Sa growth 42C second temp
CCOc1ccccc1NC(=O)CSc1nc(N)cc(N)n1	-16	110	.	.
CC(c1nnc(SCc2cc(=O)n3ccsc3n2)n1-c1ccc(Cl)cc1)N1CCCCC1 (centres undefined)	4	.	81	94
Cc1ccc(CNC(=O)C2c3ccccc3C(=O)N3CCc4ccccc4C23)cc1 (centres undefined)	.	103	110	78
O=C(NCCc1ccccc1)c1ccc2c(c1)CCN2S(=O)(=O)c1ccc(Cl)cc1	0	106	95	106
CCOc1ccc(-n2c(SCC(=O)NCC3CCCO3)nc3c([nH]c4ccccc43)c2=O)cc1 (centres undefined)	.	93	88	95
O=C(COC(=O)c1ccccc1Br)NCC1CCCCC1	-21	.	127	86
O=c1c2cc3c(nc2ncn1Cc1ccccc1)CCCC3	2	103	.	.
CCOC(=O)c1c(C(C)(C)C)oc2ccc(OCC(=O)OC)cc12	.	101	71	84
Nn1c(NNC(=O)c2ccccc2)nnc(-c2cccs2)c1=O	-42	.	99	87
CCOC(=O)c1cnc2c(ccc3ccccc32)c1NCCN1CCOCC1	11	106	100	92
Cc1cc(C)n2nc(CNS(=O)(=O)c3cccc4nsnc34)nc2n1	.	104	112	86
CCc1cccc2c(N=O)c(O)[nH]c12	-54	102	99	78
CC1CCc2c(cc(-c3ccccc3)n2-c2ccc(C(=O)NC(C)C)cc2)C1 (centres undefined)	5	103	110	102
CC1CC(C)CN(CCC(=O)Nc2ccccc2F)C1 (centres undefined)	0	102	78	94
Cc1ccc(Cl)cc1N1CCN(C(=O)C2CCN(Cc3nc(-c4ccc(Cl)cc4)oc3C)CC2)CC1	-27&-39	103&103	112	86

Reformatted as labelled records: entries from further up
mol: CC(c1nnc(SCc2cc(=O)n3ccsc3n2)n1-c1ccc(Cl)cc1)N1CCCCC1 (centres undefined)
  HCMV UL50-53 inh = 4
  GIV Gai3 FP = .
  Sa growth 42C = 81
  Sa growth 42C second temp = 94
mol: Cc1ccc(CNC(=O)C2c3ccccc3C(=O)N3CCc4ccccc4C23)cc1 (centres undefined)
  HCMV UL50-53 inh = .
  GIV Gai3 FP = 103
  Sa growth 42C = 110
  Sa growth 42C second temp = 78
mol: O=C(NCCc1ccccc1)c1ccc2c(c1)CCN2S(=O)(=O)c1ccc(Cl)cc1
  HCMV UL50-53 inh = 0
  GIV Gai3 FP = 106
  Sa growth 42C = 95
  Sa growth 42C second temp = 106

(further entries)
SMILES	HCMV UL50-53 inh	GIV Gai3 FP	Sa growth 42C	Sa growth 42C second temp
COC(=O)c1[nH]cc(-c2ccccc2)c1N	-31	105	.	.
CC(C)OC(=O)Cc1csc(-c2ccc(Oc3ccc(C(F)(F)F)cn3)cc2)n1	-26	107	125	88
Cc1ccc2nc(C)c3cc(C)oc3c2c1	8	107	98	42
O=C(NC1CCCCC1)C1CCN(c2ccc(-c3ccc(F)cc3)nn2)CC1	-2	99	.	.
Cc1ccccc1CNC(=O)Cn1cc2c(n1)-c1c(oc(C(=O)N3CCCC3)c1C)CC2	.	114	87	72
COc1ccc(COC(=O)C2=C(C)NC(=O)NC2c2cc(OC)ccc2OC)cc1 (centres undefined)	-9	105	.	.
O=C(c1ccc(Cl)cc1)N1CCCC(C(=O)N2CCCc3ccccc32)C1 (centres undefined)	-4	.	84	88
CCN1CCN(C(C)C(=O)N(C(C)C)C(C)C)CC1 (centres undefined)	19	98	71	107
O=C(COc1ccccc1)Nc1ccc2[nH]c(=O)[nH]c2c1	4	.	84	92
COc1cc(OC)cc(C(=O)N2CCN(C(=O)COc3ccc(C)cc3)CC2)c1	-33	106	97	86
Cc1cc(C(=O)NC2CCCCC2)c2c(=O)n(C)c(=O)n(C)c2n1	2	106	.	.
CCCNC(=O)c1cnn(-c2ccc(C)c(C)c2)c1C1CCN(C(=O)OC(C)(C)C)CC1	.	109	106	91
CCOc1ccc2nc(N3CCC(C(=O)N4CCCCC4)CC3)sc2c1	.	99	108	88
O=C(CC1OC(=O)c2ccccc21)c1cc(O)ccc1O (centres undefined)	-96	98	100	79
CC(C)(C)c1csc(-c2ccc(-n3cncn3)nc2)n1	-10	99	119	99
CCc1ccc2[nH]cc(S(=O)(=O)c3ccc(OC)cc3)c(=O)c2c1	-22	108	.	.
Cc1cccc(NC(=O)c2cn(-c3ccccc3)nc2-c2cccnc2)c1	-8	.	106	90
CN1CCCc2cc(C(CNC(=O)c3cccc(Cl)c3)N3CCCC3)ccc21 (centres undefined)	-11	106	.	.
O=C(Nc1ccc2c(c1)OCCO2)c1csc2c1CCCC2	-3	103	105	92
COc1ccc(/C=C/C(=O)Nc2nc3n(n2)C(c2ccc(F)cc2)C=C(c2ccccc2)N3)cc1 (centres undefined)	-34	113	119	73
O=C(NCc1ccccc1Cl)C1CCC(=O)N1Cc1ccc(F)cc1 (centres undefined)	.	101	111	76
CCN(CC)N=Nc1ccc(NC(C)=O)cc1	-48	109	96	83
COC(=O)/C=c1\sc2nc3ccccc3n2c1=O	.	101	111	88
COc1ccc(C(=O)Nc2ccc(S(=O)(=O)Nc3nccnc3OC)cc2)cc1	.	101	102	91
c1ccc(-c2noc(-c3ccc(N4CCc5ccccc5C4)nn3)n2)cc1	16	103	.	.
CSC1=N/C(=C\c2ccccc2O)C(=O)N1Cc1ccc(Cl)cc1	12	105	102	101
Cc1nc(SCc2cc(=O)n3cc(C)sc3n2)n[nH]1	-17	99	.	.
CC(C)CNC(=O)c1c(-c2ccccc2)nnc2ccccc12	-76	102	.	.
CN(C)c1cccc(C(=O)N2CCc3c(c(C(=O)NCc4ccccc4)nn3C)C2)c1	-5	100	.	.
COc1cc(C2N(C)c3ccccc3-c3nc4ccccc4n32)cc(OC)c1OC (centres undefined)	-26	102	90	69
CC(=O)c1ccc(N2CCN(c3ncnc4c3cnn4-c3cc(Cl)ccc3C)CC2)cc1	.	102	108	96
Cc1ccccc1-c1nnn(Cc2ccc(-c3nn[nH]n3)cc2)n1	11	104	103	89
CCCc1[nH]nc2c1C1(CCN(C)CC1C)C(C#N)=C(N)O2 (centres undefined)	6	109	94	95
COc1ccccc1Cc1nc2ccccc2nc1SCC(=O)NCc1ccccc1Cl	.	97	105	101
Cc1ccc(C)c(Nc2nn3c(=O)c4ccc(C(=O)N(C)Cc5ccccc5)cc4nc3s2)c1	.	110	111	108
CCC1Cn2c(C(=O)N3CCCC3)cc3cccc(c32)O1 (centres undefined)	-17	108	.	.
O=C1C(=O)N(C2CCN(C(=O)c3cccc(Cl)c3)CC2)CCN1Cc1cccc(F)c1	-25	100	.	.
Clc1ccccc1C1=NC2=S(O1)OC(c1ccccc1Cl)=N2	-2	.	94	96
Cc1ccc(C)c(N2CCN(C(=O)C3CCN(S(=O)(=O)c4cccc5nsnc45)CC3)CC2)c1	-93	102	.	.
CCSc1nn(CC)c2nc3c(c(=O)n12)C(C)(C)Cc1ccccc1-3	-26	105	.	.
CCc1cc2c3c(c1)/C(=C1/SC(N)=NC1=O)C(=O)N3C(C)(C)C=C2C	-5	112	94	102
Cc1cc(-c2nc3ncccc3o2)ccc1NC(=O)c1ccc(Cl)cc1	-33	113	109	91
CCCCc1ccc(C(=O)/C=C2\NC(=O)CS2)cc1	-5	.	80	53
COC(=O)/C(=C(/O)c1ccccc1)c1nc2ccccc2[nH]1	-30	.	102	93
COc1ccc(-c2n[nH]c(CCNC(=O)Cc3ccccc3)n2)cc1	-19	99	.	.
CN(C)c1ccc(C(=S)N2CCN(c3ccccc3F)CC2)cc1	-1	103	118	96
Cc1cc(C)nc(N2CCC(NC(=O)OC(C)(C)C)CC2)n1	-3	104	92	88
Cc1nc2ccc(F)cc2c2c1COC2	-23	105	99	90
COC(=O)c1ccc(NC2CCCCC2)c(N)c1	-1	114	101	98
Cc1ccccc1C1CCC(=O)NC1 (centres undefined)	-11	102	96	92
COc1ccc2c(c1)c(CC(=O)Nc1ccc(C(C)=O)cc1)c(C)n2C(=O)c1ccc(Cl)cc1	-28	103	75	84
O=S(=O)(c1ccc(Cl)cc1)c1nc(-c2ccc(F)cc2)oc1N1CCOCC1	-6	105	.	.
O=C(CSc1cc(N2CCCCC2)ncn1)Nc1ccc2c(c1)OCCO2	-25	103	.	.
COc1cc(/C=C(\C#N)c2nc3ccccc3c(=O)[nH]2)cc(OC)c1OC	.	101	117	90
C/C(=N\O)C(=O)NCC1CCNCC1	-19	99	95	91
CN(Cc1ccccc1)Cc1cccnc1	3	.	116	87
C=CCn1c(SCC(=O)OCC)nc2sc3c(c2c1=O)CCCC3	-15	100	.	.
CCN(CC)C(=O)CSc1nnc(C(C)N(C)C)n1-c1ccc(F)cc1 (centres undefined)	-14	.	77	98
Cc1ccc(NC(=O)Cn2nnc(C(=O)NCCc3ccccc3)c2N)cc1	3	100	108	89
C=CCNC(=O)C1CCC(=O)N1C1CCCCC1 (centres undefined)	8	102	97	86

Complete entries, looked up by structure.
Record of CN(Cc1ccccc1)Cc1cccnc1 = HCMV UL50-53 inh = 3; GIV Gai3 FP = .; Sa growth 42C = 116; Sa growth 42C second temp = 87
Record of O=S(=O)(c1ccc(Cl)cc1)c1nc(-c2ccc(F)cc2)oc1N1CCOCC1 = HCMV UL50-53 inh = -6; GIV Gai3 FP = 105; Sa growth 42C = .; Sa growth 42C second temp = .

The list goes on.
SMILES	HCMV UL50-53 inh	GIV Gai3 FP	Sa growth 42C	Sa growth 42C second temp
O=C(NCc1ccccc1Cl)c1ccc(CN2CC(=O)N3CSCC3C2=O)cc1 (centres undefined)	-8	105	.	.
Cc1cc(C)n(C(=O)CCC(=O)NCc2ccccc2)n1	1	.	126	99
Cc1c(Cl)cccc1NC(=O)c1ccc(CN2CC(=O)N3CCCCC3C2=O)cc1 (centres undefined)	-6	104	.	.
Nn1c(SCc2csc(-c3ccccc3)n2)nnc1-c1cccs1	6	.	89	95
CCOCCCNC(=O)c1csc2c1CCCC2	-30	95	.	.
CCC(Sc1nc2cc(OC)c(OC)cc2c(=O)n1Cc1ccco1)C(=O)Nc1cccc(OC)c1 (centres undefined)	-9	103	88	88
O=C(O)CCC(=O)c1ccccc1	.	108	117	85
CC1CCCCN1C(=S)NC(=O)c1cccs1 (centres undefined)	-2	.	104	88
CC(C)Cn1cc(C(=O)N2CCC(Cc3ccccc3)CC2)c2c3ccccc3n(C)c2c1=O	-17	105	.	.
COc1ccc(C)cc1-n1c(SCC(=O)N(C)C2CCS(=O)(=O)C2)nc2ccccc2c1=O (centres undefined)	-29	.	82	82
O=c1c2cc3sccc3n2cc(-c2ccccc2)n1-n1cccc1	-13	100	100	82
CN1CCN(C(=O)CSc2nc3ccccc3n2C)CC1	1	.	108	96
Cc1ccc(-n2ncc(C(=O)N3CCCCC3)c2C2CCN(C(=O)OC(C)(C)C)CC2)c(C)c1	.	102	80	89
COc1cc2c(cc1OC)CN(C(=O)CCC(=O)O)CC2	9	105	85	106
CCOC(=O)C1CCCN(C(=O)COc2ccc3oc4ccccc4c3c2)C1 (centres undefined)	-16	.	120	92

3 entries from above, bar-delimited.
smiles | HCMV UL50-53 inh | GIV Gai3 FP | Sa growth 42C | Sa growth 42C second temp
Cc1ccc(CNC(=O)C2c3ccccc3C(=O)N3CCc4ccccc4C23)cc1 (centres undefined) | . | 103 | 110 | 78
O=C(NCCc1ccccc1)c1ccc2c(c1)CCN2S(=O)(=O)c1ccc(Cl)cc1 | 0 | 106 | 95 | 106
CCOc1ccc(-n2c(SCC(=O)NCC3CCCO3)nc3c([nH]c4ccccc43)c2=O)cc1 (centres undefined) | . | 93 | 88 | 95

Next part
SMILES	HCMV UL50-53 inh	GIV Gai3 FP	Sa growth 42C	Sa growth 42C second temp
O=c1/c(=C\c2ccc(OCc3c(F)cccc3Cl)cc2)sc2nc3ccccc3n12	-23	102	.	.
Cc1cc2ccccc2n2c(SCC(=O)Nc3cccc(C(F)(F)F)c3)nnc12	-18	103	100	95
O=C(c1ccc(Cn2c(=O)c3cccn3c3cccnc32)cc1)N1CCN(c2ccc(Cl)cc2)CC1	-15	106	.	.
CCOc1cc(C2C(C(=O)OC)=C(C)NC3=C2C(=O)c2ccccc23)cc(Cl)c1O (centres undefined)	-30	107	93	92
CC(Oc1ccccc1)C(=O)N1CCCC1 (centres undefined)	-12	103	89	76
O=C(Nc1cc(Cl)cc(Cl)c1)c1cc(S(=O)(=O)N2CCc3ccccc3C2)ccc1F	.	100	139	79
O=C1CCCC2=C1C(c1cccc(O)c1)C1=C(CCCC1=O)O2	-12	107	.	.
Cc1onc(-c2ccccc2)c1C(=O)NCCc1ccccc1	-23	100	94	94
CCC(=O)N1c2ccc(S(=O)(=O)NC(C)C)cc2CC1C (centres undefined)	-31	97	83	77
O=C(CN1CCN(Cc2ccc(F)cc2Cl)C1=O)NCCCN1CCN(c2ccccc2F)CC1	-19	102	.	.
Cc1ccc2nc(SCC(=O)N(C)C3CCCCC3)c(C#N)cc2c1	-10	98	86	115
CCc1nnc2c3ccccc3nc(Nc3cc(Cl)c(OC)cc3OC)n12	-6	105	.	.
CCCCN(CC)C(=O)C1CCCN(c2ccc(-c3ccccc3)nn2)C1 (centres undefined)	-31	99	.	.
CCOC(=O)Cc1csc(NC(=O)CSc2nc(N)c3c4c(sc3n2)CCCC4)n1	-38	.	82	91
Cc1cc(/C=C2/C(=N)N3C=CSC3=NC2=O)c(C)n1-c1ccccc1	.	109	78	73
c1ccc(CSC23CC4CC(CC(C4)C2)C3)cc1	-11	103	106	90
CCOC(=O)CNC(=O)CC(c1ccc(F)cc1)N1Cc2ccccc2C1=O (centres undefined)	-2	98	.	.
